High-throughput results: PubChem, ICCB-Longwood Screening Facility, Harvard Medical School
Sa growth 42C: S. aureus growth inhibition at 42 and 30 °C, primary screen, LtaS inhibitor project, RN4220, two temperatures | OD600, 20 h, 42 °C; active compounds read low | relative growth, % (test concentration not listed) | 0.53% of 170,000 active | AID 720641, 2013;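 active means growth at 42 °C up to 50% and 20 or more points under that at 30 °C, or under 10% at both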;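 further: 300 nL library stock went into each well; scaled to the means of positive and negative controls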
HCMV UL50-53 inh: inhibitors of HCMV UL50-UL53 interaction, biochemical, HTRF | normalized percent inhibition | 0.15% of 190,000 active | inhibition, % (concentration not given with the values) | AID 1918969, 2023 | HCMV UL50-UL53 nuclear egress complex (human cytomegalovirus);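 active means both replicates at 50% or more, plus weaker picks with an unusually low signal ratio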;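 further: stock transfer was 100 nL into about 20 µL; 0% = negative control wells and 100% = wells with untagged competitor protein; inactives centre near -12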
GIV-Gai inh: inhibitors of GIV peptide binding to Galpha-i3, primary screen, biochemical, fluorescence polarization, FITC-GIV GBA peptide, rat Galphai3; percent of control (FP), % (test concentration not listed); Guanine nucleotide-binding protein G(i) subunit alpha-3 (Rattus norvegicus), P08753; 0.42% of 210,000 active; 90 min; active compounds read low; scaled: aluminum fluoride 0%, vehicle 100%; AID 1224905, 2016;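 active means replicate mean at 85% of control or lower, very high polarization wells dropped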;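 further: lower values mean more displacement of the GIV peptide from Galpha-i3; wells of about 15 µL received 100 nL stock; the first replicate is given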
Target sequence (P08753 whole entry, looked up): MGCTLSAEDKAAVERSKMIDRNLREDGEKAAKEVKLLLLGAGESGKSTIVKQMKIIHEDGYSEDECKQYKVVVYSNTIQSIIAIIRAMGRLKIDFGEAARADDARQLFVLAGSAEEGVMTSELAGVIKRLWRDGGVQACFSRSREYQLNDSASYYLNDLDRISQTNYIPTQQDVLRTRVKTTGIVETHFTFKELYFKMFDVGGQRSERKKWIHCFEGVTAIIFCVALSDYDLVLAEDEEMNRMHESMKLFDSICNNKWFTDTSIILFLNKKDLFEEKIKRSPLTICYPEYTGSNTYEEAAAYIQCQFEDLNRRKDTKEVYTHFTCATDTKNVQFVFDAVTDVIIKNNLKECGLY
Sa growth 42C second temp: recorded beside Sa growth 42C, whose call it bears; relative growth, %; measured here: growth at 30 °C;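 optical density after 20 h as mean of two plates; 100% = untreated growth and lower means inhibition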
Starred values were filed as active, the others as inactive; x = no result given; & = joins results of further samples.

The line under a structure holds: Sa growth 42C | Sa growth 42C second temp | HCMV UL50-53 inh | GIV-Gai inh
- CC(C)C1N=C2c3ccccc3N=C(SCC(=O)NCc3ccc(Cl)cc3)N2C1=O (stereo not given)
→ 85 | 76 | x | 105
- N#CC1=C(N)OC2=C(C(=O)CCC2)C1c1cc2cc3c(cc2nc1Cl)OCO3 (stereo not given)
→ 105 | 89 | -8 | 103
- COc1cccc(/C=C/C(=O)NC2=NCCS2)c1
→ 98 | 92 | -32 | x
- CCNC(=O)C1CCN(Cc2cc3ccccc3n2Cc2ccc(C)cc2)CC1
→ 106 | 96 | x | 96
- Cc1ccc(CNC(=O)CN2C(=O)C3CCCCN3c3ccc(C(=O)N4CCCC4)cc32)cc1 (stereo not given)
→ 95 | 89 | x | 104
- COc1ccc(S(=O)(=O)N2CC(O)CC2C(=O)OCc2nc3sc(C)c(C)c3c(=O)[nH]2)cc1 (stereo not given)
→ 106 | 93 | -26 | x
- Cn1cc(C(=O)NCCc2ccccc2)c(=O)c2cc(S(=O)(=O)N3CCCC3)ccc21
→ 105 | 89 | x | 104
- COc1ccc(CN(C)C(=O)c2ccc(=O)[nH]c2)cc1
→ 82 | 87 | -14 | x
- O=C(Nc1cccc2c1C(=O)c1ccccc1C2=O)c1ccc(S(=O)(=O)N2CCCCC2)cc1
→ x | x | -2 | 100
- c1ccc(-n2nnnc2SSc2nnnn2-c2ccccc2)cc1
→ 89 | 84 | -5 | 101
- CSc1ccc(CCNC(=O)Cn2ncc3c([nH]c4ccccc43)c2=O)cc1
→ 135 | 89 | x | 100
- CCOC(=O)C(C#N)C(c1ccc2c(c1)OCO2)c1ccccc1OC (stereo not given)
→ 99 | 75 | -16 | 97
- CCOC(=O)C1CCCN(C(=O)CN2N=C(c3ccccc3)CCC2=O)C1 (stereo not given)
→ 97 | 80 | -33 | 100
- N#Cc1cc(C(N)=O)c(SCc2ccccc2)nc1N
→ 112 | 91 | 55 | x
- S=c1sc2ccccc2n1CCn1c(=S)sc2ccccc21
→ 88 | 84 | -22 | 98
- CC1=C(C(=O)Nc2ccc(Cl)cc2)C(c2ccc(Br)cc2)n2ncc(C(=O)Nc3cccc(C)c3)c2N1 (stereo not given)
→ x | x | -14 | 100
- CN1C(=O)c2ccccc2Sc2ccc(NC(=O)c3ccc(C#N)cc3)cc21
→ 148 | 88 | x | 107
- COc1ccc(NC(=O)c2c(NCc3ccc(N(C)C)cc3)sc3c2CCC3)cc1
→ 111 | 71 | x | 118
- CCCn1c(SCc2c(C)noc2C)nc2ccccc2c1=O
→ 88 | 89 | 11 | x
- Cc1nn(-c2ccccc2)c2sc(C(=O)c3nccn3C)cc12
→ 102 | 89 | -26 | x
- Cc1ccc(/C=C(\NC(=O)c2ccccc2)C(=O)NCC2CCCO2)o1 (stereo not given)
→ 98 | 102 | -17 | 105
- COc1ccc(-c2ncnc(C(F)(F)F)c2-c2cscn2)c(O)c1
→ 101 | 94 | -15 | x
- O=C(Cn1c2ccccc2c(=O)c2ccc(Cl)cc21)Nc1ccc(Oc2ccc(Cl)cc2)cc1
→ x | x | -22 | 103
- COc1ccccc1C(=O)NCCC(=O)NC1CCCCCC1
→ 79 | 87 | -15 | x
- CC(=O)NC(=O)c1cc2cc(Br)ccc2oc1=Nc1cccc(F)c1
→ x | x | -9 | 102
- O=C(COCC(=O)N1CCc2ccccc2C1)N1CCc2ccccc2C1
→ 117 | 90 | -6 | x
- CCCCOc1ccc(/C=C2\C(=O)N(c3ccc(C(=O)OC(C)C)cc3)N=C2C)cc1OC
→ x | x | -13 | 94
- CCOC(=O)c1c(NC(=O)/C=C/c2ccc(OCC)cc2)sc(C)c1C
→ 112 | 94 | -33 | 106
- c1ccc2c(c1)oc1c(NCC3CCCO3)ncnc12 (stereo not given)
→ 95 | 86 | -32 | x
- Cc1oc(-c2ccc(Cl)cc2)nc1CSc1nnc(C)n2c1cc1sccc12
→ 103 | 98 | x | 103
- CCOc1ccc(C(=O)NCCc2sc(-c3ccc(OC)c(OC)c3)nc2C)cc1
→ 96 | 101 | x | 109
- Cn1cc(/C=C(\C#N)C(=O)OC2CCCCC2)c2ccccc21
→ 84 | 75 | -34 | 103
- Cc1cc(NC=C(C#N)C#N)no1
→ 86 | 50 | -35 | 105
- COn1c2c(c3c4nonc4ccc31)CCCC2
→ 93 | 93 | -2 | 102
- N#Cc1c(-c2ccc(Cl)cc2)cc[nH]c1=O
→ x | x | -52 | 97
- O=C(CSc1nncn1-c1ccccc1)Nc1ccccc1C(=O)Nc1ccc2c(c1)OCO2
→ 72 | 93 | -1 | x
- CCOC(=O)c1cc2c(=O)n(C)c3ccccc3c2s1
→ 107 | 95 | -12&-28 | 100&102
- CCOc1ccc(N2C(=O)NC(=O)/C(=C\c3ccc(Br)cc3)C2=O)cc1
→ x | x | 1 | 110
- CCOC(=O)c1sc(-c2ccc(C)cc2)c(C#N)c1C
→ 115 | 80 | x | 104
- COCCCn1c(=O)c2sccc2n2c(CCCC(=O)NC3CCC(C)CC3)nnc12 (stereo not given)
→ 99 | 88 | x | 99
- CCS(=O)(=O)c1ccccc1C(=O)Nc1ccc(-c2nc3ccccc3s2)cc1
→ 84 | 92 | x | 102
- CN(C(=O)CSc1nc2ccc(NC(=O)c3cccs3)cc2s1)c1ccccc1
→ 107 | 74 | -16 | 95
- CC(=O)N(CN1C(=O)c2ccccc2C1=O)c1ccccc1C
→ 89 | 103 | -7 | x
- O=C(C1CCC(=O)N1S(=O)(=O)c1ccccc1)N1CCc2ccccc21 (stereo not given)
→ x | x | -8 | 109
- CN1c2ccsc2C(=O)/C(=C/Nc2cccnc2)S1(=O)=O
→ 94 | 92 | -50 | 106
- O=C1C2CC=CCC2C(=O)N1Cc1ccccc1 (stereo not given)
→ 96 | 87 | x | 101
- CCS(=O)(=O)c1ccc2oc(SCc3nc4ccccc4s3)nc2c1
→ 98 | 86 | -14 | x
- CNc1ccc(C(=O)O)cc1
→ 96 | 78 | -7 | 103
- Cc1ccc(-c2csc(NC(=O)/C=C/c3ccco3)c2C(=O)O)cc1
→ 85 | 40 | x | 100
- Nc1nc(-c2ccncc2)ncc1S(=O)(=O)Cc1ccco1
→ 97 | 96 | 12 | 101
- O=C(/C=C/c1ccco1)N(Cc1nnc(-c2ccccc2Cl)o1)C1CC1
→ 107 | 86 | -22 | x
- CC1CCC2(CC1)Nc1ccccc1S2 (stereo not given)
→ 86 | 75 | -42 | 104
- Cn1cccc1Cc1nnc(SCC(=O)N2CCCCC2)n1CCc1ccccc1
→ 121 | 96 | x | 100
- CCOC(=O)CC1COc2cc(C)ccc2N1Cc1ccc(C)cc1 (stereo not given)
→ x | x | 16 | 105
- CCN(CC)CCNc1nc2c(c(=O)n(C)c(=O)n2C)n1Cc1ccc(Cl)c(Cl)c1
→ x | x | -8 | 104
- Cc1ccc2cc(C(F)(F)F)ccc2n1
→ 94 | 101 | 0 | 101
- COc1ccc(N(CC(=O)NCc2ccc(Cl)cc2Cl)S(=O)(=O)c2ccccc2[N+](=O)[O-])c(OC)c1
→ x | x | -9 | 99
- COc1ccc(C2c3c(oc4cc(C)cc(C)c4c3=O)C(=O)N2CC2CCCO2)cc1OC (stereo not given)
→ x | x | -6 | 103
- O=C1c2ccccc2C(=O)N1CCC(=O)N(C1CCCCC1)C1CCCCC1
→ 97 | 82 | x | 100
- CCCc1nc(SC)ncc1C(=O)NCc1ccc(F)cc1
→ 93 | 104 | 12 | 108

Part of the list above, as labelled records:
> CCS(=O)(=O)c1ccccc1C(=O)Nc1ccc(-c2nc3ccccc3s2)cc1
  Sa growth 42C = 84	Sa growth 42C second temp = 92	HCMV UL50-53 inh = x	GIV-Gai inh = 102

> CN(C(=O)CSc1nc2ccc(NC(=O)c3cccs3)cc2s1)c1ccccc1
  Sa growth 42C = 107	Sa growth 42C second temp = 74	HCMV UL50-53 inh = -16	GIV-Gai inh = 95

> CC(=O)N(CN1C(=O)c2ccccc2C1=O)c1ccccc1C
  Sa growth 42C = 89	Sa growth 42C second temp = 103	HCMV UL50-53 inh = -7	GIV-Gai inh = x

> O=C(C1CCC(=O)N1S(=O)(=O)c1ccccc1)N1CCc2ccccc21 (stereo not given)
  Sa growth 42C = x	Sa growth 42C second temp = x	HCMV UL50-53 inh = -8	GIV-Gai inh = 109

(further entries)
compound,Sa growth 42C,Sa growth 42C second temp,HCMV UL50-53 inh,GIV-Gai inh
Cc1cc(NC(=O)Cn2c(=O)n(CCCC(=O)NCc3ccccc3Cl)c(=O)c3ccccc32)n[nH]1,113,85,0,103
N#CCN(CC#N)C(=O)c1ccc(Cl)cc1Cl,91,92,1,97
Cc1oc2c(F)c(F)c(F)c(F)c2c1C(=O)Oc1ccc(Br)cc1,91,79,-19,102
CC(C)Sc1sc(C#N)c2c1C(=O)CC(C)(C)C2,99,92,6,106
CC(C)NC(=O)C1CC(c2ccc(F)cc2)=NO1 (stereo not given),96,90,x,105
Cc1ccc(C(=O)C(C)n2nc3n(C)c(=O)c4ccc(C(=O)NC5CCCC5)cc4n3c2=O)cc1C (stereo not given),x,x,-22,104
CCCOc1ccccc1C1CC(=O)C2=C(C1)Nc1ccccc1N(C(C)=O)C2c1ccc(OC)cc1 (stereo not given),x,x,-10,100
O=C(O)CSc1c2c(nc3cc(C(=O)N4CCCc5ccccc54)ccc13)CCCC2,94,91,-1,106
Clc1ccc2c(-n3nnc4ccccc43)ccnc2c1,93,95,-7,x
CCCOc1ccc(C2c3c(oc4ccccc4c3=O)C(=O)N2c2nnc(C(C)C)s2)cc1 (stereo not given),101,95,-23,99
CCN(CC)CCC(=O)N1c2ccccc2CCc2ccc(NC(=O)OC(C)C)cc21,112,79,-10,102
S=c1[nH]nc(CSCc2cccc3ccccc23)n1C1CCCCC1,94,82,-12,111
CCOc1ccccc1NC(=O)N1CC(C)Oc2ccc(Cl)cc21 (stereo not given),93,86,4&-5,103&100
Cc1cccc(C)c1OCC(=O)NCC1(N(C)C)CCCCC1,107,88,-20,99
O=C1N=c2ccccc2=C1c1sc(=O)[nH]c1O,114,36,-16,94
O=C(c1ccncc1)N(Cc1cc2ccccc2[nH]c1=O)c1ccccc1,85,80,-16,99
COc1cccc(CC(=O)Nn2c(C)nc3ccccc3c2=O)c1,107,84,x,100
CCOC(=O)CSc1nc(-c2cccnc2)nn1C(=O)c1ccccc1,108,97,-23,116
Cc1c(-c2nnc(C(=O)NC3CCC(C)CC3)o2)oc2c(C)cccc12 (stereo not given),x,x,-19,105
CC(C)OC(=O)c1cc(=O)[nH]c2ccccc12,106,91,-7,102
Cc1ccc(-n2ncc3c(NCCCn4ccnc4)ncnc32)cc1,86,52,x,101
O=S(=O)(c1ccccc1C(F)(F)F)N1CCN(c2ccccc2O)CC1,123,96,4,x
COc1ccccc1N1CCN(C(=O)c2ccccc2C(F)(F)F)CC1,98,110,-17,103
CC(=O)NCCc1c(F)cccc1Cl,102,90,-18,97
Cc1ccc2c(c1)N(C(=O)Cn1c(=O)n(CCCCC(=O)NC(C)C)c(=O)c3ccccc31)CCO2,x,x,-22,103
CC(C)CNS(=O)(=O)c1ccc(N2C(=O)CCS2(=O)=O)cc1,x,x,-41,106
CCOC(=O)C1=C(N)OC2=C(C(=O)CC(c3ccccc3)C2)C1c1ccccc1Cl (stereo not given),x,x,5,113
CCOc1cc(/C=C2\SC(=S)N(CCCC(=O)O)C2=O)ccc1O,101,50,-153,211
Cc1ccc(Cn2c(=O)c3ccccc3n3c(SC4CCOC4=O)nnc23)cc1 (stereo not given),100,93,4,x
COC(=O)c1c(C)[nH]c(C(=O)N2CCC(CC(=O)N3CCN(c4ccccc4)CC3)CC2)c1C,x,x,-1,111
CCc1ccc(NC(=O)N2CCC(C)(C(=O)NCc3ccccc3)CC2)cc1,x,x,20,99
CCc1ccc(-c2nc(CN3CCC(C(=O)NCc4ccccc4Cl)CC3)c(C)o2)cc1,96,86,-14,103
Clc1ccc(CCNc2ncnc3onc(-c4ccc(Cl)cc4)c23)cc1,109,76,-15,102
CCN(CC)CCNC(=O)C1Cc2cc(S(=O)(=O)N3CCOCC3)ccc2N1C(C)=O (stereo not given),x,x,-4,94
O=C(Nc1ccc2c(c1)OCCO2)c1ccc(Cn2c(=O)c3cccn3c3cccnc32)cc1,x,x,57,101
N/C(=N\C(=O)N1CCOCC1)c1ccccc1OC(F)(F)F,96,93,-29,105
CCOc1ccc(CNC(=O)c2ccc3c(c2)c(C)c(C)n3Cc2ccc(Cl)cc2)cc1,97,105,x,99
CCc1ccc(-c2csc3ncn(CC(N)=O)c(=O)c23)cc1,98,81,-12,x
CC(C(=O)NC1CCc2ccccc21)n1nc2ccccc2n1 (stereo not given),83,84,-11,99
COc1cc(NC(=O)CC2C(=O)N(c3cccc(C)c3)C(=O)N2Cc2cccs2)cc(OC)c1 (stereo not given),86,77,x,100
CC1CCc2c(sc(NC(=O)c3cc(-c4ccc(F)cc4)on3)c2C(N)=O)C1 (stereo not given),102,86,-13,107
Cc1ccc(S(=O)(=O)N2CCCC(NC(=O)N3CCCCC3C)C2)cc1 (stereo not given),108,97,5,101
NC(=O)C1CCN(C(=O)c2ccc3c(=O)n4c(nc3c2)CCCC4)CC1,79,79,-19,97
CCC(C)NC(=O)c1nn(-c2ccc(OC)cc2)c(=O)c2c1c1ccccc1n2C (stereo not given),102,88,0,104
COc1cccc(-n2c(SCC(N)=O)nc3c(oc4ccccc43)c2=O)c1,104,76,-29,98
